# A647 autofl: compound autofluorescence in A647 spectral region; Compound fluorescence, A647 channel (570/671 nm), Tris buffer; max dye-equivalent concentration, M; 59,000 tested, under 10 active; AID 592; active means above 1 µM dye equivalent; inconclusive means 0.1 to 1 µM; inactive means 0.1 µM or less;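 also: values scaled relative to a standard on each plate; highest value over a series up to 38 µM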
#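 Spectral profiling of library compounds in pH 8.0 Tris: 15 min room-temperature incubation, single ex/em pair (570/671 nm), response normalized to Alexa 647 equivalents.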
# Resorufin autofl: compounds fluorescent in resorufin spectral region | Compound fluorescence, resorufin region 547/598 nm, buffer; active compounds read high | max dye-equivalent concentration, M | 59,000 tested, 0.04% active | AID 588; active = above 10 nM dye equivalent; inconclusive = 1 to 10 nM; inactive = 1 nM or less; a few of its hits are not listed in these tables; also: highest value over a series up to 38 µM
#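 Compounds in 100 mM Tris buffer, pH 8.0, incubated 15 min at room temperature, then read with 547 nm excitation and 598 nm emission filters. Fluorescence was converted to dye-equivalent concentration using an on-plate six-point resorufin standard curve.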
# TSHR agonist: agonists of human thyroid stimulating hormone receptor; P16473; 73,000 tested, 0.48% active; AID 926; HEK293-CNG-TSHR cells (CNG channel as cAMP sensor), membrane potential dye, cAMP; Potency, µM (series often up to 57.1 µM), for the others: at the top dose activation, most hits filed as activators; active = well fitted activation curve of enough size with the parental cells flat; inconclusive = any curve in the parental cells; inactive = parental cells flat and receptor cells flat or falling; also: potency is read from the fitted curve at half-maximal effect; % of control where 0% means no effect; weak receptor curves with flat parental cells got no call and are not listed
# Target sequence (P16473 whole entry, looked up): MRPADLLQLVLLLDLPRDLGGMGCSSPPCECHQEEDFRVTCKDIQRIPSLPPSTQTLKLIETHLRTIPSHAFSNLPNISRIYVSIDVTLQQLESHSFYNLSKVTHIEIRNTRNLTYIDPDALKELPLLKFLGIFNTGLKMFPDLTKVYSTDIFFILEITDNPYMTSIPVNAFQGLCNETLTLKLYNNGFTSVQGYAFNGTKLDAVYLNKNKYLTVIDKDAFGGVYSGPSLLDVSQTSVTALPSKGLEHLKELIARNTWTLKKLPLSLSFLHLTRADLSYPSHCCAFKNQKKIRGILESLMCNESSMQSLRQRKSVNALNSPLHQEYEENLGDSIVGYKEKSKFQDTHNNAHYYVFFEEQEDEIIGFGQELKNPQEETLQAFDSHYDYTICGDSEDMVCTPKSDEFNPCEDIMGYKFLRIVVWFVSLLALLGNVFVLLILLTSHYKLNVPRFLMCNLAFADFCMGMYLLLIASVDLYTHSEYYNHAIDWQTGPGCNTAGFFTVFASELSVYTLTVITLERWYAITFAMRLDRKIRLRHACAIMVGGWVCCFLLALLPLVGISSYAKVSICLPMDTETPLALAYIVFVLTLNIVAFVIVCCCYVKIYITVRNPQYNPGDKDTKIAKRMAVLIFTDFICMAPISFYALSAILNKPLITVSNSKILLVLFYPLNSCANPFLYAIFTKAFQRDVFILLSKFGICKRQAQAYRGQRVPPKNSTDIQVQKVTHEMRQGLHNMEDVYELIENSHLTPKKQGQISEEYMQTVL
#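 HEK 293 cells stably expressing TSHR and a cAMP-gated CNG channel; parental CNG-only cells as counterscreen. Cells preloaded 60 min with membrane potential dye plus 100 uM RO 20-1724, then compound 30 min; fluorescence read at 590 nm.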
# A488 autofl: compound autofluorescence in A488 spectral region; compound autofluorescence, A488 spectral region, dye equivalency; active compounds read high; max dye equivalency, M; 59,000 tested, 0.1% active; AID 591; active = above 10 nM dye equivalent; inconclusive = 1 to 10 nM; inactive = 1 nM or less; about half of its hits are not listed in these tables;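 also: highest value over a series up to 38 µM; compound alone in buffer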
#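 Intrinsic compound fluorescence is measured in 100 mM Tris buffer at pH 8.0 following 15 min incubation at room temperature. Intensities at 480 nm excitation/540 nm emission are calibrated to an on-plate A488 concentration series, giving dye-equivalent concentrations.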
# AID923: qHTS Assay for Allosteric/Competitive Inhibitors of Caspase-1: Spectroscopic Profiling in AFC Spectral Region; 75,000 tested, 1.1% active; compound fluorescence, AFC spectral region (405/520 nm); almost no hit is shown here; Potency, µM (doses to about 57.5 µM), inactives show at the top dose fluorescence increase, hits mostly activators; active = well fitted activation curve with a large enough effect; inconclusive = small, poorly fitted or top-dose-only effect;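 also: potency is read from the fitted curve at half-maximal effect; 0% is about no effect; scaled to a free AFC standard on each plate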
#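 Baseline compound fluorescence (AFC region, 405 nm ex/520 nm em) taken from the intercept of kinetic reads with 50 nM caspase-1 and 5 uM Ac-WEHD-AFC; normalized to an on-plate AFC standard curve; compounds titrated up to 57 uM.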
# The depositor's hits bear a star; i = inactive; ? = inconclusive; . = no result given; [ ] = another dose, or the depositor's remark. Not all compounds are listed. The share of hits here may be higher or lower than overall.
SMILES,A647 autofl,Resorufin autofl,TSHR agonist,A488 autofl,AID923
O=C(O)C1CC(=O)N(c2ccc(OCc3c(F)cccc3Cl)cc2)C1 (stereo not drawn),1.4e-08,i,-5%,i,0.5%
Cc1nnc(NC(=O)c2ccccc2Br)s1,1e-09,i,1%,i,-1.1%
Cc1nc2ccccn2c1/C(O)=C1\C(=O)C(=O)N(CCCn2ccnc2)C1c1ccncc1 (stereo not drawn),1e-09,i,-2%,i,1.6%
CCCCOc1ccc(CSC(CC(=O)O)C(=O)O)cc1 (stereo not drawn),3.4e-09,i,.,i,.
CCOC(=O)c1[nH]c(C)c(/C(O)=C2\C(=O)C(=O)N(CCCn3ccnc3)C2c2ccncc2)c1C (stereo not drawn),3.6e-08,i,-7%,i,-0.5%
CCCCOc1ccc(S(=O)(=O)N2CCCCCC2)cc1,.,.,?,.,-0.2%
Cc1cc(C)c2c(=O)c3c(oc2c1)C(=O)N(CCO)C3c1cccc(O)c1 (stereo not drawn),9.3e-09,i,18%,i,-0.6%
O=C(O)CNC(=O)[C@H]1NC(C(F)(F)F)(C(F)(F)F)OC1(C(F)(F)F)C(F)(F)F,3.4e-08,i,-1%[11.4 µM],i,-0.9%[11.5 µM]
COCCOC(=O)c1[nH]c2c(c1C)C(=O)CC(c1cc(OC)ccc1OC)C2 (stereo not drawn),.,.,13%,.,-3.5%
CN1CCN(C(=O)c2ccc(S(=O)(=O)c3ccc(Br)cc3)cc2)CC1,1e-09,i,-1%,i,2.1%
CS(=O)(=O)N1CCN(c2ccccc2F)CC1,3.2e-08,i,7%,i,-1.7%
COc1ccc(NS(=O)(=O)c2ccc(Oc3ncccn3)cc2)cc1,1e-09,i,?,i,-0.4%
Cc1ccc(-c2nc(CS(=O)(=O)CC(=O)N3CC(C)CC(C)C3)c(C)o2)cc1 (stereo not drawn),.,.,?,.,-2.0%
CC(=O)N1CCCc2cc(S(=O)(=O)N3CCc4ccccc4C3)ccc21,2.8e-09,i,6%,i,-1.7%
N#Cc1ccc2ccn(CC(=O)NCc3ccccc3)c2c1,3.3e-08,i,.,i,0.2%
CCOC(=O)N1CCc2c(sc(NC(=O)c3ccc(S(=O)(=O)N4CCCC4)cc3)c2C#N)C1,.,.,?,.,-2.9%
Cc1nc2c(C)cccn2c1/C(O)=C1\C(=O)C(=O)N(CCN2CCOCC2)C1c1ccncc1 (stereo not drawn),6.6e-09,i,7%,i,0.8%
O=C(c1c[nH]c2ccccc12)C(O)C(c1ccccc1)N1CCOCC1 (stereo not drawn),1.6e-08,i,-19%,i,-0.7%
CCOC(=O)c1[nH]c(C)c(C(=O)NC(C)(C)C)c1C,1e-09,i,-1%,i,-1.5%
CCOc1ccc2[nH]c(=O)c(CN(CCO)C(c3nnnn3C3CCCCC3)C(C)C)cc2c1 (stereo not drawn),1.3e-08,i,?,i,20%
O=C(CC1CCCCC1)NCc1ccccn1,8.1e-08,i,5%,i,-0.2%
Cc1occc1C(=O)NCc1ccccc1F,2.9e-08,i,?,i,1.2%
Cc1cc(C)c2cc(C#N)c(SCC(=O)NCC3CCCO3)nc2c1 (stereo not drawn),2.6e-08,i,6%,i,0.6%
COC(=O)CC1=C(C(=O)OC)C(c2ccncc2)C(C#N)=C(N)O1 (stereo not drawn),1e-09,i,.,i,.
COc1ccc(C(CC(=O)O)NC(C)=O)cc1OC (stereo not drawn),2.4e-08,i,-5%[11.4 µM],i,-0.7%
c1cc(C2OCCN2CC2COC3(CCCC3)O2)ccn1 (stereo not drawn),1e-09,i,1%,i,0.6%
COCC(C)NC(=O)C1CC(c2cccc(Br)c2)=NO1 (stereo not drawn),1e-09,i,-2%,i,0.3%
COC(=O)C/C=C\[C@@H](C)[C@@H](/C=N\OCC[C@@H]1C=C[C@H](OC(C)=O)[C@H](COC(C)=O)O1)OC,.,.,-4%[11.4 µM],.,4.6%[11.5 µM]
CCc1c(C(=O)NC2CCCC2)csc1C,3.6e-09,i,15%,i,-0.7%
COc1ccc2sc(N3C(=O)C4CC=C(C)CC4C3=O)nc2c1 (stereo not drawn),2e-08,i,?,i,-1.3%
N#Cc1cccc(-c2nnc(SCc3ccccc3C#N)o2)c1,1.5e-09,i,11%,i,-0.8%
Cc1ccc(N2CCN(c3ccc(C)cc3)C2c2ccccn2)cc1,5.3e-09,i,-3%,i,0.5%
COC(=O)CN1C2(C#N)CCCCC2CC2CCCCC21C#N (stereo not drawn),7.2e-09,i,.,i,.
CC(OC(=O)c1cccs1)C(=O)NCc1ccco1 (stereo not drawn),1e-09,i,-3%,i,-1.1%
Cc1cccc(C)c1OCC(O)CNS(=O)(=O)c1ccccc1C(=O)N1CCOCC1 (stereo not drawn),1e-09,i,.,i,.
c1ccc(CSCc2cn3ccsc3n2)cc1,1.5e-08,i,?,i,-0.5%

# A draw from above in order of length of the SMILES, largest number first:
SMILES,A647 autofl,Resorufin autofl,TSHR agonist,A488 autofl,AID923
COC(=O)C/C=C\[C@@H](C)[C@@H](/C=N\OCC[C@@H]1C=C[C@H](OC(C)=O)[C@H](COC(C)=O)O1)OC,.,.,-4%[11.4 µM],.,4.6%[11.5 µM]
COc1ccc2sc(N3C(=O)C4CC=C(C)CC4C3=O)nc2c1 (stereo not drawn),2e-08,i,?,i,-1.3%
COC(=O)CN1C2(C#N)CCCCC2CC2CCCCC21C#N (stereo not drawn),7.2e-09,i,.,i,.
c1ccc(CSCc2cn3ccsc3n2)cc1,1.5e-08,i,?,i,-0.5%

# Returning to the listing with the three entries that preceded the break.
SMILES,A647 autofl,Resorufin autofl,TSHR agonist,A488 autofl,AID923
CC(OC(=O)c1cccs1)C(=O)NCc1ccco1 (stereo not drawn),1e-09,i,-3%,i,-1.1%
Cc1cccc(C)c1OCC(O)CNS(=O)(=O)c1ccccc1C(=O)N1CCOCC1 (stereo not drawn),1e-09,i,.,i,.
c1ccc(CSCc2cn3ccsc3n2)cc1,1.5e-08,i,?,i,-0.5%
COc1ccc(NC(=O)CS(=O)CC(=O)Nc2cc(Cl)ccc2OC)cc1 (stereo not drawn),1e-08,i,-4%,i,0.3%
CCCc1n[nH]c2c1C(=O)CC(C)(C)C2,.,.,-1%,.,-0.4%
O=C(NCc1ccc2c(c1)OCO2)c1cccc2c1C(=O)N(C1CCCCC1)C2,.,.,10%,.,0.3%
COc1ccc(C2OC(=O)CC2C(=O)NC(C)C)cc1 (stereo not drawn),2.6e-09,i,0%,i,1.1%
O=C(c1ccc(F)cc1)c1cn[nH]c1-c1ccccc1O,1e-09,i,-10%,i,-1.4%
C[C@@H]1CCCN(C[C@@H](O)CN2CCCc3ccccc32)C1,1.2e-08,i,8%[11.4 µM],i,5.0%[11.5 µM]
CC(C)Nc1nc(NC(C)C)nc(N(C)C(N)=O)n1,5.2e-09,i,1%,i,-0.2%
Nc1ccc(N2C(=O)c3ccccc3C2=O)c(Cl)c1,9.4e-09,i,.,i,-2.4%
CC(C)(Oc1ccc(Cl)cc1)C(=O)N1CCN(c2ccccn2)CC1,.,.,?,.,0.1%
Cc1ccc(CC(NC(=O)c2ccccc2)C(=O)N2CCCC2C(=O)O)cc1 (stereo not drawn),1.3e-09,i,?,i,0.3%
COC(=O)Cc1[nH]nc2c1C1(C(=O)N(Cc3ccc(Cl)cc3)c3ccccc31)C(C#N)=C(N)O2 (stereo not drawn),1e-09,i,-5%,i,-0.4%
CCOc1ccc(N2C(=O)CC(NCCc3ccncc3)C2=O)cc1 (stereo not drawn),7.6e-08,i,-1%,i,0.0%
COc1ccc2c(c1OC)C(=O)N(c1ccc3c(c1)CCC3)C2=O,4e-08,i,-6%,i,0.2%
CCOC(=O)c1c(C)oc2ccc(OC(=O)N3CCOCC3)cc12,1e-09,i,6%,i,1.1%
O=C(Cn1cnc2c(cnn2-c2ccc(Cl)cc2)c1=O)NC1CCCCC1,.,.,2%,.,1.7%
COc1ccc(NC(=O)CSc2nc(O)c(Cc3ccccc3)c(=O)[nH]2)cc1,.,.,-5%,.,-1.4%
CCOC(=O)C1=C(C)NC(c2ccccc2)=C(C(=O)OCc2ccc([N+](=O)[O-])cc2)[C@@H]1C#Cc1ccccc1,.,.,-9%,.,0.0%
OC(COC1CCCCC1)CN1CCN(c2ccccc2)CC1 (stereo not drawn),1e-09,i,4%,i,-1.3%
COc1ccc(NC(=O)N2CCCC(c3nc(-c4ccc(C(C)C)cc4)no3)C2)cc1 (stereo not drawn),1.6e-08,i,19%,i,-0.1%
Cn1c(C(=O)NCCN2CCOCC2)cc2sccc21,.,.,-4%,.,0.2%
Cc1ccc(NC(=O)CC2C(=O)NC3CCCCC3N2C(=O)c2ccc(F)cc2)cc1C (stereo not drawn),1e-09,i,-11%,i,1.2%
CS(=O)(=O)N1CCCC(C(=O)NCCN2CCC(Cc3ccccc3)CC2)C1 (stereo not drawn),5.9e-09,i,5%,i,0.2%
C=CCc1ccccc1OCC(O)CN1CCN(c2ccc(C)cc2)CC1 (stereo not drawn),8.6e-09,i,0%,i,0.0%
O=C(COC(=O)C1COc2ccccc2O1)NC(=O)NC1CCCC1 (stereo not drawn),2.8e-08,i,-3%,i,-0.4%

# Random excerpt: three entries already listed
SMILES,A647 autofl,Resorufin autofl,TSHR agonist,A488 autofl,AID923
C=CCc1ccccc1OCC(O)CN1CCN(c2ccc(C)cc2)CC1 (stereo not drawn),8.6e-09,i,0%,i,0.0%
CS(=O)(=O)N1CCCC(C(=O)NCCN2CCC(Cc3ccccc3)CC2)C1 (stereo not drawn),5.9e-09,i,5%,i,0.2%
COc1ccc2c(c1OC)C(=O)N(c1ccc3c(c1)CCC3)C2=O,4e-08,i,-6%,i,0.2%

# Limited to TSHR agonist, A647 autofl and Resorufin autofl (four entries from above):
smiles	TSHR agonist	A647 autofl	Resorufin autofl
Cn1c(C(=O)NCCN2CCOCC2)cc2sccc21	-4%	.	.
Cc1ccc(NC(=O)CC2C(=O)NC3CCCCC3N2C(=O)c2ccc(F)cc2)cc1C (stereo not drawn)	-11%	1e-09	i
CS(=O)(=O)N1CCCC(C(=O)NCCN2CCC(Cc3ccccc3)CC2)C1 (stereo not drawn)	5%	5.9e-09	i
C=CCc1ccccc1OCC(O)CN1CCN(c2ccc(C)cc2)CC1 (stereo not drawn)	0%	8.6e-09	i

# (further entries)
SMILES,A647 autofl,Resorufin autofl,TSHR agonist,A488 autofl,AID923
CC1(C)NC(=O)N(CC(O)COc2ccccc2-c2ccccc2)C1=O (stereo not drawn),7.6e-09,i,-3%,i,-0.1%
O=C1C[C@H](c2ccccc2)Oc2cc(O)cc(O)c21,1e-09,i,1%,i,-1.0%
O=C(Nc1cc(C(F)(F)F)ccc1N1CCCCC1)c1ccco1,9.2e-09,i,?,i,-2.2%
COc1cc(-c2nc(S(=O)(=O)c3ccc(C)cc3)c(N3CCOCC3)o2)cc(OC)c1OC,8.6e-09,i,8%,i,-0.8%
CC1(C)Cc2c(sc3c4nnnn4c4nnnn4c23)CO1,8.1e-09,i,.,i,.
c1ccc(CCN2CCN(c3ncnc4c3cnn4-c3ccccc3)CC2)cc1,2.6e-08,i,-14%,i,-0.3%
CCNS(=O)(=O)c1c(C)cc(N2CCCC2=O)cc1C,2.4e-08,i,2%,i,1.5%
CCCCN(C)CCCNC(=O)c1cccc(N2CCCC2=O)c1,1e-09,i,1%,i,0.1%
CCCCCCC1=Cc2cc(OC)c(OC)cc2C(C2(C(=O)OCC)CCCC2=O)O1 (stereo not drawn),.,.,2%[11.4 µM],.,-3.5%[11.5 µM]
c1nc(N2CCOCC2)c2[nH]cnc2n1,1.4e-09,i,-10%,i,3.4%
Cc1nnc(SCCn2c(N3CCN(Cc4ccccc4)CC3)nc3c2c(=O)[nH]c(=O)n3C)s1,2.9e-08,i,6%,i,-0.5%
CC1CN(C2CCCCC2)c2nc3c(c(=O)n(C)c(=O)n3C)n2C1 (stereo not drawn),3.9e-09,i,3%,i,-2.1%
NS(=O)(=O)c1ccc(NCc2c(F)cccc2Cl)cc1,2.3e-08,i,5%,i,-2.3%
Cc1ccc(C#N)cc1,.,.,-14%,.,1.3%

# Screens from PubChem BioAssay.
